# Screening data from PubChem.
# RE007 growth inh = qHTS Assay for Inhibitors of the HIV-1 protein Vpr | 360,000 tested, 0.21% active | S. pombe RE007 Vpr strain, BacTiter-Glo ATP luminescence, 24 h; control for the full effect not named in the record | Potency, µM (highest dose often 92.2 µM), for inactives: at the top dose activity change, negative = less growth; active = well fitted falling curve with a large enough effect; inconclusive = small, poorly fitted or top-dose-only effect; inactive = no such curve, though single readings can be large or run the other way;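 note: % is set by controls: 0 for no effect and ±100 for the full control effect; nearly all actives have a fitted effect of over 50% in size; the assay follows cell death caused by Vpr and the record does not say whether a fall means rescue or toxicity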
#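 Fission yeast strain RE007, carrying one chromosomally integrated HIV-1 vpr copy, was seeded at OD 0.01 in PMG+AL medium with 23 nL pinned compound. After 24 h at 30 °C and 99% humidity, viability was read by BacTiter-Glo luminescence.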
# Marburg entry inh = qHTS for inhibitors of binding or entry into cells for Marburg Virus | Marburg virus pseudotyped entry inhibition, cell reporter; control for the full effect not named in the record; about a third of the inactives were read at about 46 µM | Potency, µM (titrated, usually from 37.8 µM), for inactives: at the highest dose activity change, negative = inhibition, actives largely listed as inhibitors | 300,000 tested, 1.8% active; active = well fitted inhibition curve with a large enough effect; inconclusive = small, poorly fitted or top-dose-only effect, or effect the other way; inactive = flat fitted curve, though single readings scatter; tested in HEK293 cells; about a fifth of its hits are not listed in these tables; note: % is set by controls: 0 for no effect and ±100 for the full control effect; luciferase read-out
# StopGo reporter = High Throughput Screening for Foot and Mouth Disease Virus Antivirals; human cells with a luciferase reporter of 2A StopGo recoding; control for the full effect not named in the record; AID 1159524, 2015; 410,000 tested, 1.2% active; Potency, µM (top dose mostly 57.9 µM), for inactives: top-dose signal change, negative = less light; active = well fitted falling curve with a large enough effect; inconclusive = small, poorly fitted or top-dose-only effect; inactive = no such curve, though single readings can be large or run the other way; tested in HEK293T cells; note: % is set by controls: 0 for no effect and ±100 for the full control effect; nearly all actives have a fitted effect of over 45% in size; luciferase light after 4 h
# NS1 inh = qHTS Assay for Inhibitors of Influenza NS1 Protein Function; S. cerevisiae slowed by influenza A NS1, growth recovery by OD600; Potency, µM (top dose mostly 46.1 µM), inactives show at the top dose activity, positive = more growth; 270,000 tested, 0.4% active; AID 2326, 2010; active means well fitted rising curve with a large enough effect; inconclusive means small, poorly fitted or top-dose-only effect; inactive means no such curve, though single readings can be large or run the other way; note: nearly all actives have a fitted effect of over 50% in size
#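 S. cerevisiae expressing influenza A NS1, grown in glucose, washed, then diluted 1:100 into pH 6.0 -URA galactose medium with 23 nl compound. Growth recovery read as OD600; NS1-free strain serves as control.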
# LASV entry inh = qHTS for Inhibitors of binding or entry into cells for Lassa Virus; Potency, µM (doses to about 37.9 µM), inactives show top-dose activity change, negative = inhibition, actives largely listed as inhibitors; Lassa virus pseudotype entry inhibition, cell reporter; control for the full effect not named in the record; 300,000 tested, 1.2% active; active means well fitted inhibition curve with a large enough effect; inconclusive means small, poorly fitted or top-dose-only effect, or effect the other way; inactive means flat fitted curve, though single readings scatter; tested in HEK293 cells; note: % is set by controls: 0 for no effect and ±100 for the full control effect; nearly all actives have a fitted effect of over 50% in size; luciferase read-out
# Cruzain inh Det = qHTS Assay for Promiscuous and Specific Inhibitors of Cruzain (with detergent) | Cruzipain (Trypanosoma cruzi), P25779 | purified cruzain, Z-FR-AMC fluorescence, 0.01% Triton | Potency, µM, without a hit: max response, negative = inhibition, usual class: inhibitors | 200,000 tested, 0.43% active;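 note: plate controls were neutral wells for no effect and buffer without enzyme for full effect; nearly all actives have a fitted effect of over 40% in size; top concentration of the series not given in the record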
# Target sequence (P25779 123-467 limits assumed): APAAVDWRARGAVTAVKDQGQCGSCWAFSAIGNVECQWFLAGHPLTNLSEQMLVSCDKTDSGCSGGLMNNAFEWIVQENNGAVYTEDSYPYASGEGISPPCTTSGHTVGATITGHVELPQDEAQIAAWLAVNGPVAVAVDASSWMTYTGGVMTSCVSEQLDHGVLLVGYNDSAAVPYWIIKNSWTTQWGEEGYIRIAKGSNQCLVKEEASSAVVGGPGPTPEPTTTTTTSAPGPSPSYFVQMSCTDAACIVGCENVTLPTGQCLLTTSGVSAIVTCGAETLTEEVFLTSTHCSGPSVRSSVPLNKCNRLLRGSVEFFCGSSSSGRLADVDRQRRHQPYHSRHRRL
#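 Detergent-containing run (0.01% Triton X-100) in acetate buffer pH 5.5 with 5 mM DTT: enzyme at 1.5 nM final, 15 min compound preincubation at room temperature, then 2 uM Z-FR-AMC substrate. Activity taken as 60 s fluorescence increase at 360/450 nm.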
# SARS PLP yeast = qHTS of Yeast-based Assay for SARS-CoV PLP | S. cerevisiae expressing SARS-CoV PLpro, growth rescue; control for the full effect not named in the record | Potency, µM (highest dose often 32.9 µM), for inactives: top-dose activity, positive = growth rescue | 330,000 tested, 0.19% active | AID 485353, 2010; active means well fitted rising curve with a large enough effect; inconclusive means small, poorly fitted or top-dose-only effect; inactive means no such curve, though single readings can be large or run the other way; note: 0% is about no effect; nearly all actives have a fitted effect of over 55% in size; growth read by luminescence after 48 h
# Cruzain inh noDet = qHTS Assay for Promiscuous and Specific Inhibitors of Cruzain (without detergent). 200,000 tested, 2.3% active. AID 1476, 2009. Potency, µM, without a hit: max response, negative = inhibition, usual class: inhibitors. purified cruzain, Z-FR-AMC fluorescence, no detergent. Cruzipain (Trypanosoma cruzi), P25779;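 note: plate controls were enzyme without inhibitor for no effect and buffer without enzyme for full effect; nearly all actives have a fitted effect of over 40% in size; top concentration of the series not given in the record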
#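 Purified cruzain at 1.5 nM, pre-incubated 15 min with compound at room temperature in 100 mM sodium acetate pH 5.5, 5 mM DTT, 0.00005% Triton X-100. Reaction started with 2 uM Z-FR-AMC; AMC fluorescence increase over 60 s gives rate.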
# * hit, by the source's call; ? = inconclusive; · = not tested or not shown; & = joins results of further samples; [ ] = dose if it differs, or a comment. Unless noted, calls come from the whole dose curve; as a rule, active = well fitted curve in the direction sought with a large enough effect; inconclusive = small, poorly fitted or top-dose-only effect, or another doubt; inactive = no such curve, though single readings can be large; an effect the other way counts as inactive or inconclusive. Potency is the fitted concentration of half-maximal effect.
SMILES,RE007 growth inh,Marburg entry inh,StopGo reporter,NS1 inh,LASV entry inh,Cruzain inh Det,SARS PLP yeast,Cruzain inh noDet
O=C(NCc1ccccc1C(F)(F)F)C1CC(c2ccccc2[N+](=O)[O-])=NO1 (stereo not drawn),-11%,-6%,33%[activator],2%,·,-2.6%,2%,-3%
c1ccc(SCc2nc3ccccc3s2)nc1,-21%,?,22%,7%,?,·,-2%,·
COC(C[C@@H](O)[C@H](C)[C@@H](O)COCc1ccccc1)OC,-9%,·,-5%,3%,·,·,-3%,·
COC(=O)CSc1ccc2nnc(-c3ccc(OC)c(OC)c3)n2n1,3%,2%,-15%,-5%,-13%,-2.1%,6%,2%
Cc1cccc(N2CCN(C(=O)C3CCCCC3)CC2)c1C,3%,-23%,·,-135%,-35%,0.8%,-18%,-4%
CN(CC(=O)Nc1ccc(Cl)cc1)CC(=O)Nc1ccc(F)c(F)c1F,1%,-23%,-9%,-18%,-7%,-13%,-7%,-5%
COc1ccc2oc(=N)c(C(=O)Nc3cccc(C)c3C)cc2c1,1%,12%,0%,1%,?,·,12%,·
CCOC(=O)C1CCN(CC(C)(C)NS(=O)(=O)c2ccccc2)CC1,8%,-1%[46.1 µM],3%,3%,9%,·,-2%,·
COc1cc(OC)cc(C(=O)NC(=S)Nc2ccc3oc(=O)ccc3c2)c1,18%,·,-10%,-3%,·,·,-1%,·
O=C(NCCCCCNC(=O)c1ccccn1)c1ccccn1,12%,·,-20%,-5%,·,·,-1%,·
COc1cccc(NC(=O)c2oc3ccccc3c2NC(C)=O)c1,2%,?,0%,-5%,6%,-2.5%,-12%,2%
COc1ccc(N(CC(=O)NCc2ccco2)S(C)(=O)=O)c(OC)c1,2%,-26%[46.1 µM],-6%,0%,-6%[46.1 µM],·,0%,·
Cn1c(SCC(=O)c2cc(Cl)c(Cl)s2)nnc1-c1ccco1,-19%,7%[14.2 µM],17%,6%,-1%,·,-1%,·
O=C(N/C(=C\c1cccc(Br)c1)C(=O)N1CCCCC1)c1ccco1,5%,-20%[46.1 µM],34%[activator],-10%,-16%[46.1 µM],·,-8%,·
Cc1ccc(S(=O)(=O)Cn2nnnc2CN2CCCC3(CCCCC3)C2)cc1,22%,?,·,-42%,?,-1.4%,-14%,-6%
CCOc1ccc(Sc2cc(C(=O)NCCc3ccc(OC)c(OC)c3)c3ccccc3n2)cc1,·,·,14µM*,·,-8%[46.1 µM],1.7%,·,-13%
Nc1c(C(=O)NCc2ccc3c(c2)OCO3)nnn1Cc1ccc(Br)cc1,5%,?,-12%,0%,-18%[46.1 µM],·,2%,·
O=C(O)CC(CNC(=O)C1CCCN1C(=O)OCc1ccccc1)c1ccccc1 (stereo not drawn),6%,·,-9%,3%,·,·,2%,·
O=C(Nc1ccc(C(=O)OCc2cc(=O)n3nc(C4CC4)sc3n2)cc1)c1ccc(F)cc1,·,·,?,·,21%[46.1 µM],0.2%,·,-6%
CC(C)(C)C(=O)NCCc1csc2nc(-c3ccc(F)cc3)nn12,·,·,?,·,-10%[46.1 µM],3.4%,·,-10%
CCCCN(CC)c1nc(N)c(C#N)c(CC#N)c1C#N,20%,?,?,8%,-29%,-10%,-1%,-29%
COc1ccc(-n2c(COc3ccccc3)nnc2SCC(N)=O)cc1,9%,2%,1%,2%,15%,0.8%,12%,2%
CCCc1nnc2n1N=C(c1ccc(-c3cc(Cl)ccc3Cl)o1)CS2,·,·,·,-10%,·,-3.1%,5%,16µM*
Cc1ccc(NC(=O)c2cn(-c3cccc(C)n3)cn2)cc1,-14%,?,46%[activator],-25%,10%,-0.1%,-4%,-14%

# Complete entries as entered above. Order of screens: RE007 growth inh	Marburg entry inh	StopGo reporter	NS1 inh	LASV entry inh	Cruzain inh Det	SARS PLP yeast	Cruzain inh noDet
# Results for Cc1cccc(N2CCN(C(=O)C3CCCCC3)CC2)c1C = 3%	-23%	·	-135%	-35%	0.8%	-18%	-4%
# Results for CCOc1ccc(Sc2cc(C(=O)NCCc3ccc(OC)c(OC)c3)c3ccccc3n2)cc1 = ·	·	14µM*	·	-8%[46.1 µM]	1.7%	·	-13%

# 2 of the compounds above, with two lines to a compound:
# Results follow in this order: RE007 growth inh, Marburg entry inh, StopGo reporter, NS1 inh, LASV entry inh, Cruzain inh Det, SARS PLP yeast, Cruzain inh noDet
CCCCN(CC)c1nc(N)c(C#N)c(CC#N)c1C#N
 : 20%, ?, ?, 8%, -29%, -10%, -1%, -29%
COc1ccc(-n2c(COc3ccccc3)nnc2SCC(N)=O)cc1
 : 9%, 2%, 1%, 2%, 15%, 0.8%, 12%, 2%

# The list continues.
SMILES,RE007 growth inh,Marburg entry inh,StopGo reporter,NS1 inh,LASV entry inh,Cruzain inh Det,SARS PLP yeast,Cruzain inh noDet
O=C(c1ccc2c(c1)N(Cc1ccc(F)cc1)C(=O)c1ccccc1S2(=O)=O)N1CCN(c2ccccn2)CC1,-1%,3.2µM*,8%&-26%,·,?,1.2%,0%,25%
COc1ccccc1CNC(=O)CCCn1nc(C)c2sc3ccccc3c2c1=O,·,-4%[46.1 µM],-2%,·,6%[46.1 µM],-3.7%,·,10µM*
Cc1nc2[nH]c(=S)[nH]c(=O)c2nc1C,2%,0%,7%,·,1%,·,·,·
O=C(COC(=O)c1cccc(Br)c1)NC(=O)NC1CCCC1,1%,5%[46.1 µM],1%,·,?,·,-7%,·
C=CCNc1ncnc2c1[nH]c1ccc(C)cc12,-12%,?,·,-13%,-15%,-21%,4%,-18%
COc1ccccc1C(=O)Nc1ccnn1C1CCN(Cc2cnn(C)c2)CC1,4%,-1%,-15%,6%,-2%,·,5%,·
COc1ccc(NC(=O)CCc2nnc3ccc(NCc4ccco4)nn23)cc1OC,2%,?,4%,6%,?,·,-2%,·
COc1ccccc1N1CCN(C(=O)c2cc(-c3ccc(C)c(F)c3)on2)CC1,·,-9%[46.1 µM],-17%,·,?,-7.7%,·,-15%
CC(=O)c1c(C)[nH]c(C(=O)NCCC2=CCCCC2)c1C,5%,?,8%,-37%,?,-4.0%,-4%,-7%
O=C(C1CCCO1)N1CCN(S(=O)(=O)c2ccc(Cl)cc2)CC1 (stereo not drawn),-9%,18%,-10%,3%,7%,·,-1%,·
CCOc1nc(Nc2ccc(Cl)cc2)nc(OCC)n1,0%,-11%,-8%,-6%,-23%,·,-3%,·
Cc1ccc(Cl)cc1N(CC(=O)N1CCOCC1)S(C)(=O)=O,2%,·,4%,-33%,·,·,-7%,·
CC(C)(CO)NS(=O)(=O)c1ccc2c(c1)C(=NO)c1cc(S(=O)(=O)NC(C)(C)CO)ccc1-2,6%,-2%[46.1 µM],30%,0%,?,·,-1%,·
CC(C)c1ccc(NS(=O)(=O)c2ccc(-n3cccn3)cc2)cc1,-11%,·,-12%,8%,·,·,2%,·
COC(=O)C1=C(C(=O)OC)[C@@H]2N(C)c3ccc(OC)cc3[C@@]23C[C@@H](C(=O)OC)N(S(=O)(=O)c2ccc(OC)cc2)C3=N1,-18%,·,-15%,-34%,·,·,1%,·
CCOC(=O)C1(Cc2ccccc2)CCCN(C(=O)C=C(C)C)C1 (stereo not drawn),1%,?,22%,-38%,6%[46.1 µM],·,-4%,·
N#CCCn1cc(/C=C/C(=O)O)c(-c2ccc(F)cc2)n1,2%,·,-13%,5%,·,·,1%,·
COc1ccc(-c2n(CC(=O)OC3CC(C)CCC3C(C)C)c3ccccc3[n+]2C)cc1 (stereo not drawn),5%,?,5µM*,2%,?,·,0%,·
CCN1CCN(c2cc(=O)n(-c3cc(Cl)ccc3C)c(=O)[nH]2)CC1,6%,-2%,9%,-10%,-12%,2.6%,-15%,-4%
COc1ccccc1C(=O)NNC(=O)C1CCN(C(=O)OC(C)(C)C)CC1,0%,·,0%,4%,·,·,-4%,·
COc1ccc(CC(=O)NCc2nnc(SCC(=O)Nc3ccccc3)n2C)cc1,-1%,·,-6%,0%,·,·,-1%,·
CCOC(=O)c1nn(-c2ccc(Cl)cc2)cc1O,-19%,·,7%,-6%,·,·,-1%,·
COc1ccc(CN(C(=O)Cn2nnc(-c3ccc(C)o3)n2)C(C(=O)NCC2CCCO2)c2ccco2)cc1 (stereo not drawn),2%,?,56%[activator],-3%,-3%,·,-2%,·
O=C(O)c1[nH]c2ccc([N+](=O)[O-])cc2c1-c1ccccc1,18%,·,-17%,10%,·,·,0%,·
c1ccc(OCc2nn3c(-c4ccncc4)nnc3s2)cc1,6%,-27%,-20%,-34%,-19%,1.3%,8%,-9%
Clc1ccc2c(N/N=C/c3ccc(Br)cc3)ccnc2c1,1%,3.3µM*,-33%,-22%,?,?,-81%,?
COC(=O)C(C(=O)Nc1ccc(OC)cc1)C1CCCCCC1 (stereo not drawn),23%,?,-19%,-4%,-25%,5.2%,-5%,-5%
O=C(NCc1ccc(F)cc1)c1ccc2c(O)c(S(=O)(=O)c3ccccc3)c(=O)[nH]c2c1,·,·,-19%,·,-18%[46.1 µM],0.1%,·,0%
CCc1nn(CC(=O)NCc2ccco2)c(=O)c2cc3cc(F)ccc3n12,·,-20%[46.1 µM],-16%,·,·,0.5%,·,-12%
CCC(C)C(=O)Nc1nc(-c2ccc3c(c2)NC(=O)CO3)cs1 (stereo not drawn),21%,?,-19%,7%,-2%,-7.9%,-1%,12%
Cn1cccc1CC(=O)N/N=C\c1ccccc1,10%,22%[46.1 µM],3%,5%,28%,·,0%,·
CCn1c(=O)c(C(=O)CN2CCCc3ccccc32)c(N)n(Cc2ccccc2)c1=O,5%,?,39%[activator],-15%,?,0.8%,0%,?
O=C(c1cc(C2CC2)nn1-c1ccccc1)N1CCN(c2ccccc2O)CC1,1%,8%,-9%,·,?,·,-5%,·
